# Assay outcomes as filed in PubChem BioAssay.
# ID4 SMM: binds human ID4 protein on microarray; small molecule microarray, Flag-ID4 binding, fluorescence F/B; calls only; 1.2% of 31,000 active;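 active = spot signal over background at p below 0.07 in all four prints; compounds were printed on slides so no solution concentration is given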;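 also: a binder raises fluorescence above local background on the spot; about 2 pmol printed per array spot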
# Target sequence (P47928 whole entry, looked up): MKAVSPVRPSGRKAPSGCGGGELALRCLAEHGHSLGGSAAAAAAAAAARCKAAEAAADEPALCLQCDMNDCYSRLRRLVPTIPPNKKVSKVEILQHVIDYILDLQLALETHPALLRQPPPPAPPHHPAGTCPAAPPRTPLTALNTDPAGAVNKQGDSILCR
# Calls only; i = inactive; + = active, no number.
# The opening 4 records (preview)
SMILES,ID4 SMM
O=C(O)C1CCCCC1C(=O)Nc1ccc(S(=O)(=O)N2CCOCC2)cc1 (stereo not drawn),i
C[C@@H]1CN([C@@H](C)CO)C(=O)c2cc(-c3ccc(C#N)cc3)cnc2O[C@H]1CN(C)C(=O)CC1CC1,i
COc1ccc(NC(=O)CSc2nncc3ccccc23)c([N+](=O)[O-])c1,i
CC(NS(=O)(=O)c1cc(Cl)ccc1Cl)C(=O)Nc1cccc([N+](=O)[O-])c1 (stereo not drawn),i

# The list itself (from the top)
SMILES,ID4 SMM
O=C(O)C1CCCCC1C(=O)Nc1ccc(S(=O)(=O)N2CCOCC2)cc1 (stereo not drawn),i
C[C@@H]1CN([C@@H](C)CO)C(=O)c2cc(-c3ccc(C#N)cc3)cnc2O[C@H]1CN(C)C(=O)CC1CC1,i
COc1ccc(NC(=O)CSc2nncc3ccccc23)c([N+](=O)[O-])c1,i
CC(NS(=O)(=O)c1cc(Cl)ccc1Cl)C(=O)Nc1cccc([N+](=O)[O-])c1 (stereo not drawn),i
Cc1ccc([N+](=O)[O-])cc1NC(=O)C1CCCN(S(=O)(=O)c2ccc(Cl)cc2)C1 (stereo not drawn),i
CCC(=O)N(C)C[C@@H]1Oc2ncc(/C=C/c3ccccc3)cc2C(=O)N([C@@H](C)CO)C[C@@H]1C,i
Cc1cc(NC(=O)CN(c2ccc(Cl)c(C(F)(F)F)c2)S(C)(=O)=O)ccc1Br,i
C[C@@H]1CN([C@@H](C)CO)S(=O)(=O)c2ccc(/C=C/c3ccccc3)cc2O[C@H]1CN(C)Cc1ccc(C(=O)O)cc1,+
O=C(Cn1c(-c2cscn2)nc2ccccc21)Nc1ccccc1F,i
Cc1ccc(-c2cc(C(=O)NCc3ccccn3)no2)cc1,i
C[C@@H]1CN([C@H](C)CO)C(=O)c2cc(C3=CCCCC3)cnc2O[C@@H]1CN(C)Cc1ccccc1,i
C[C@H](CO)N1C[C@H](C)[C@H](CN(C)CC2CCCCC2)Oc2cc(C3=CCCC3)ccc2S1(=O)=O,i
CCOC(=O)CSc1nc2sccn2c1C=Nc1cc(Cl)cc(Cl)c1,i
C[C@H](CO)N1C[C@H](C)[C@H](CN(C)Cc2ccc(F)cc2)Oc2ncc(C3=CCCC3)cc2C1=O,i
COC(=O)C1=C(C)NC2=C(C(=O)c3ccccc32)C1c1cc(Cl)c(OCc2ccc([N+](=O)[O-])cc2)c(OC)c1 (stereo not drawn),i
Cc1ccc2ccc(C(Nc3ccccn3)c3ccccc3Cl)c(O)c2n1 (stereo not drawn),i
COC(=O)c1ccccc1NC(=O)CSc1ncnc2sc3c(c12)CCC(C)C3 (stereo not drawn),i
Cc1cc(Cl)ccc1OCC(=O)Nc1cc(Cl)ccc1C(=O)O,i
C/C=C/c1cnc2c(c1)C(=O)N([C@@H](C)CO)C[C@@H](C)[C@H](CN(C)Cc1ccc(F)cc1)O2,i
O=C(CSc1nnc(-c2ccccc2F)n1-c1ccccc1)Nc1ccc2cn[nH]c2c1,i
Cc1ccc(-n2c(SCC(=O)OC(C)C)nnc2-c2ccncc2)cc1,i
CCN1CCN(C(=O)c2ccccc2N(Cc2ccccc2)S(C)(=O)=O)CC1,i
CN(C)C(=O)C[C@@H]1CC[C@H](NC(=O)C2CCC2)[C@@H](CO)O1,i
O=C(CCN1C(=O)c2ccccc2S1(=O)=O)Nc1ccc(F)cc1F,i
O=C(N[C@@H]1CC[C@H](CC(=O)N2CCCCC2)O[C@@H]1CO)c1cccc(F)c1,i
COc1ccc(N(CC(=O)Nc2c(F)cccc2F)S(C)(=O)=O)cc1Cl,i
CN(C)c1ccc2c(c1)[C@H]1C[C@@H](CC(=O)NCC3CC3)O[C@@H](CO)[C@H]1O2,i
O=S(=O)(c1cc(C(F)(F)F)ccc1Cl)N1CCN(Cc2ccc(OCCO)cc2)CC1,i
CC(=O)N[C@H]1CC[C@@H](CC(=O)NCC2CCCCC2)O[C@@H]1CO,i
CN(C)c1nc(N)nc(CSc2ncc(Cl)cc2Cl)n1,i
CCCC#Cc1ccc2c(c1)O[C@H](CN(C)Cc1ccccc1)[C@H](C)CN([C@H](C)CO)S2(=O)=O,i
COC(=O)C[C@H]1C=C[C@H](N)[C@H](CO)O1,i
CC(=O)N[C@@H]1C=C[C@H](CC(=O)NCc2ccc(Cl)cc2)O[C@@H]1CO,i
CCC(=O)N(C)C[C@@H]1Oc2ncc(C#CCc3ccccc3)cc2C(=O)N([C@H](C)CO)C[C@@H]1C,i
CC(=O)Nc1ccc(NC(=O)COc2ccccc2C(=O)Nc2cccc(Cl)c2Cl)cc1,i
CC(C)CC#Cc1cnc2c(c1)C(=O)N([C@H](C)CO)C[C@H](C)[C@@H](CN(C)C(=O)C1CCCCC1)O2,i
C[C@H](CO)N1C[C@H](C)[C@@H](CN(C)C)Oc2cc(-c3ccccc3F)ccc2S1(=O)=O,i
COc1ccc(Cn2c(-c3nonc3NC(C)=O)nc3ccccc32)cc1,i
COc1ccc(OC)c(N(CC(=O)Nc2ccc(I)cc2C)S(C)(=O)=O)c1,i
CCN(CC(=O)Nc1ccc(C(F)(F)F)cc1)S(=O)(=O)c1ccc2ccccc2c1,i
O=C(CCCN1C(=O)c2ccccc2C1=O)Nc1ccccc1F,i
CC(=O)c1cccc(NC(=O)CN(C2CCCCC2)S(=O)(=O)c2ccccc2)c1,i
O=C(Nc1ccc(I)cc1C(=O)NCCN1CCOCC1)c1ccco1,i
Cc1ccc(-c2cnc3c(c2)C(=O)N([C@H](C)CO)C[C@H](C)[C@H](CN(C)C(=O)CN(C)C)O3)cc1,i
CC(=O)c1cccc(NC(=O)CCN2C(=O)c3ccccc3S2(=O)=O)c1,i
CCC(=O)N(C)C[C@@H]1Oc2ncc(C#Cc3ccccc3)cc2C(=O)N([C@H](C)CO)C[C@H]1C,i
Cc1nc(SCC(=O)c2ccc(Cl)s2)c2c(C)c(C)sc2n1,i
C/C=C/c1cnc2c(c1)C(=O)N([C@H](C)CO)C[C@H](C)[C@H](CN(C)S(=O)(=O)c1cccs1)O2,i
CN(C)c1ccc2c(c1)[C@H]1C[C@@H](CC(=O)NCc3ccc(Oc4ccccc4)cc3)O[C@@H](CO)[C@H]1O2,i
C[C@H](CO)N1C[C@H](C)[C@@H](CN(C)C(=O)c2ccccc2F)Oc2ncc(Br)cc2C1=O,i
CC(C)C#Cc1cnc2c(c1)C(=O)N([C@H](C)CO)C[C@@H](C)[C@@H](CN(C)C(=O)c1cnccn1)O2,i
C[C@@H]1CN([C@@H](C)CO)C(=O)c2cc(C#CC3(O)CCCC3)cnc2O[C@@H]1CN(C)C(=O)Nc1ccc2c(c1)OCO2,i
Cc1sc2ncnc(SCC(=O)Nc3ccc(-c4nc5ccccc5s4)cc3)c2c1C,i
Cc1ccc(N(C(C)C(=O)Nc2cccc(Br)c2)S(C)(=O)=O)cc1C (stereo not drawn),i
CN(C)c1ccc2c(c1)[C@@H]1C[C@@H](CC(=O)NCc3ccccc3F)O[C@@H](CO)[C@@H]1O2,i
Cc1cc(-c2ccccc2)nc(SCC(=O)Nc2sc3c(c2C#N)CCCC3)n1,i
C[C@@H]1CN([C@H](C)CO)C(=O)c2cc(-c3ccccc3)cnc2O[C@@H]1CN(C)CC1CC1,i
O=C(C[C@@H]1CC[C@H](NC(=O)Nc2ccc(C(F)(F)F)cc2)[C@@H](CO)O1)NCCN1CCCC1,i
Cc1ccc2nc(-c3ccc(NC(=O)CCN4C(=O)c5ccccc5C4=O)cc3)[nH]c2c1,i
Nc1cccc(-c2nnc(SCC(=O)c3ccc(F)cc3)n2-c2ccccc2)c1,i

# 2 of these compounds in another layout:
Cc1ccc(N(C(C)C(=O)Nc2cccc(Br)c2)S(C)(=O)=O)cc1C (stereo not drawn)
  ID4 SMM = i

C[C@H](CO)N1C[C@H](C)[C@@H](CN(C)C(=O)c2ccccc2F)Oc2ncc(Br)cc2C1=O
  ID4 SMM = i

# Next compounds follow.
SMILES,ID4 SMM
CCCNC(=O)C[C@H]1C[C@@H]2c3cc(N(C)C)ccc3O[C@@H]2[C@@H](CO)O1,i
Cc1cccc(Oc2coc3cc(OCC(=O)Nc4ccccc4C(F)(F)F)ccc3c2=O)c1,i
COc1ccc(N(CC(=O)Nc2ccccc2F)S(C)(=O)=O)cc1,i
C/C=C/c1cnc2c(c1)C(=O)N([C@@H](C)CO)C[C@@H](C)[C@H](CN(C)C(=O)Cc1ccccc1)O2,i
CCn1c(SCC(=O)Nc2ccc(F)cc2)nnc1-c1ccc(Cl)cc1Cl,i
CN(C)C(=O)C[C@@H]1C[C@H]2c3cc(NC(=O)CC4CC4)ccc3O[C@H]2[C@H](CO)O1,i
C[C@@H]1CN([C@H](C)CO)C(=O)c2cc(-c3ccc(F)cc3)cnc2O[C@@H]1CN(C)Cc1ccccn1,i
CN(C)c1ccc2c(c1)[C@@H]1C[C@@H](CC(=O)N3CCc4ccccc4C3)O[C@H](CO)[C@@H]1O2,i
O=S(=O)(c1ccccc1)N1N=C(c2ccccc2)CC1c1ccco1 (stereo not drawn),i
Cc1ccc(NC(=O)CN(c2cc(Cl)c(Cl)cc2Cl)S(C)(=O)=O)cc1Cl,i
COCCNC(=O)C[C@@H]1C=C[C@@H](NC(=O)NC2CCCCC2)[C@H](CO)O1,i
O=C(CNS(=O)(=O)c1ccc(Cl)cc1)Nc1ccc(I)cc1,i
CCc1ccc(C(Nc2ccccn2)c2ccc3ccc(C)nc3c2O)cc1 (stereo not drawn),i
C[C@@H]1CN([C@H](C)CO)C(=O)c2cccc(N(C)C)c2O[C@@H]1CN(C)Cc1ccc2c(c1)OCO2,i
O=C(O)C[C@@H]1C=C[C@H](NC(=O)Nc2ccccc2)[C@H](CO)O1,i
CCCN(C)C[C@@H]1Oc2cc(-c3ccccc3OC)ccc2S(=O)(=O)N([C@@H](C)CO)C[C@@H]1C,i
COc1ccc(C(=O)NCC(=O)Nc2ccc(C)c(Cl)c2)cc1OC,i
Cc1ccc(C(=O)Cn2c3c(sc2=N)CCCC3)cc1,i
C[C@@H]1CN([C@H](C)CO)C(=O)c2cc(C3=CCCC3)cnc2O[C@H]1CN(C)Cc1cccc(F)c1,i
COc1ccccc1-c1coc2cc(O)ccc2c1=O,i

# Quoted at random: 4 records from the list
SMILES,ID4 SMM
C[C@@H]1CN([C@@H](C)CO)C(=O)c2cc(C#CC3(O)CCCC3)cnc2O[C@@H]1CN(C)C(=O)Nc1ccc2c(c1)OCO2,i
CCC(=O)N(C)C[C@@H]1Oc2ncc(/C=C/c3ccccc3)cc2C(=O)N([C@@H](C)CO)C[C@@H]1C,i
COc1ccc(Cn2c(-c3nonc3NC(C)=O)nc3ccccc32)cc1,i
CCOC(=O)CSc1nc2sccn2c1C=Nc1cc(Cl)cc(Cl)c1,i

# (list continues)
SMILES,ID4 SMM
C[C@H]1CN([C@@H](C)CO)C(=O)CCCn2nncc2CO[C@H]1CN(C)Cc1cccc(C(F)(F)F)c1,i
O=C(CCCOc1ccc(Cl)cc1Cl)Nc1ccc2c(c1)C(=O)NC2=O,i
CC(C)NC(=O)N[C@@H]1C=C[C@@H](CC(=O)NCc2ccc(Oc3ccccc3)cc2)O[C@H]1CO,i
COCC(=O)N(C)C[C@@H]1Oc2ncc(-c3cccc(OC)c3)cc2C(=O)N([C@@H](C)CO)C[C@H]1C,i
COc1ccccc1NC(=O)CN(c1cc(Cl)c(Cl)cc1Cl)S(C)(=O)=O,i
CC(=O)N(C)C[C@@H]1Oc2ncc(C3=CCCC3)cc2C(=O)N([C@@H](C)CO)C[C@@H]1C,i
C[C@@H]1CN([C@@H](C)CO)C(=O)c2cc(C#CCN(C)C)cnc2O[C@H]1CN(C)C,i
C[C@H]1CN([C@@H](C)CO)S(=O)(=O)c2ccc(C#Cc3ccccc3)cc2O[C@@H]1CN(C)C,i
CO[C@@H]1CN(C)C(=O)c2ccc(NC(=O)C3CCC3)cc2OC[C@@H](C)N(C)C[C@H]1C,i
Cc1ccc(OCC(=O)Nc2ccc3oc(-c4cccc(F)c4)nc3c2)c(C)c1,i
Cc1sc2ncnc(SCC(=O)Nc3ccc(C(N)=O)cc3)c2c1C,i
C[C@@H]1CN([C@@H](C)CO)C(=O)c2cc(C#CC3CCCCC3)cnc2O[C@H]1CN(C)S(=O)(=O)c1cccc(F)c1,i
COc1ccc(OC)c(S(=O)(=O)N2CCC(C(=O)Nc3ccc(Oc4ccccc4)cc3)CC2)c1,i
C[C@H]1CN([C@@H](C)CO)C(=O)c2cc(C#CCN(C)C)cnc2O[C@H]1CN(C)Cc1ccccn1,i
C[C@H]1CN([C@@H](C)CO)C(=O)c2cc(C3=CCCC3)cnc2O[C@@H]1CN(C)C,i
COCCOC(=O)N1C(=O)[C@@]2(c3cc(C#CCC(C(=O)OC)C(=O)OC)ccc31)[C@H](c1ccccc1OCCO)N1[C@H](c3ccccc3)[C@H](c3ccccc3)OC(=O)[C@H]1[C@@H]2C(N)=O,i
O=C(C1=C[C@H](c2ccc3c(c2)OCO3)C[C@H](OCc2ccc(CO)cc2)O1)N1CCCCC1,i
COCCNC(=O)C[C@H]1C=C[C@@H](NC(=O)NC2CCCCC2)[C@H](CO)O1,i
C[C@H]1CN([C@@H](C)CO)S(=O)(=O)c2ccc(C3=CCCCC3)cc2O[C@H]1CN(C)C(=O)Cc1ccccc1,i
CCC(=O)N(C)C[C@@H]1Oc2ncc(C#CCC(C)C)cc2C(=O)N([C@H](C)CO)C[C@@H]1C,i
O=C(Nc1ccc2c(c1)[C@@H]1C[C@@H](CC(=O)N3CCc4ccccc4C3)O[C@@H](CO)[C@@H]1O2)c1ccc2c(c1)OCO2,i
C[C@@H]1CN([C@H](C)CO)C(=O)CCCn2nncc2CO[C@@H]1CN(C)CC1CCCCC1,i
COc1ccccc1NC(=O)N[C@@H]1C=C[C@H](CC(=O)N[C@H](C)c2ccccc2)O[C@H]1CO,i
C[C@H]1CN([C@@H](C)CO)C(=O)c2cc(C#CC3CCCC3)cnc2O[C@H]1CN(C)Cc1ccncc1,i
Cc1ccc([N+](=O)[O-])cc1N(CC(=O)Nc1ccc(F)cc1F)S(C)(=O)=O,i
Cc1c(Cl)cccc1NC(=O)Cn1cc(C(=O)c2cccs2)c2ccccc21,i
Cc1cc(C)c(OCC(=O)Nc2ccccc2C#N)c(Br)c1,i
COC(=O)c1ccccc1NC(=O)CSc1nccc(C)n1,i
Clc1ccc(Cn2c(/N=C/c3ccc4c(c3)OCO4)nc3ccccc32)cc1,i

# A portion of the library (hit frequency here may not be typical).
